# TRPML1 blocker: inhibitors of human TRPML1 channel. actives 0.02% (n = 390,000). activity change, negative = inhibition, % (no concentration beside the values). TRPML1-inducible cells, Ca2+ dye fluorescence, FDSS; active compounds read low; inhibition of EC80 agonist-evoked calcium signal; in the data active means activity change below about -50%; inconclusive means about -30% to -50%; inactive means above about -30%;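 note: stimulus is agonist 54-4 at its EC80 concentration; % is set by controls: 0 for no effect and ±100 for the full control effect; compound concentration not given in the record; the text of the record puts the active cut at -80%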
# Target sequence (Q9GZU1 whole entry, looked up): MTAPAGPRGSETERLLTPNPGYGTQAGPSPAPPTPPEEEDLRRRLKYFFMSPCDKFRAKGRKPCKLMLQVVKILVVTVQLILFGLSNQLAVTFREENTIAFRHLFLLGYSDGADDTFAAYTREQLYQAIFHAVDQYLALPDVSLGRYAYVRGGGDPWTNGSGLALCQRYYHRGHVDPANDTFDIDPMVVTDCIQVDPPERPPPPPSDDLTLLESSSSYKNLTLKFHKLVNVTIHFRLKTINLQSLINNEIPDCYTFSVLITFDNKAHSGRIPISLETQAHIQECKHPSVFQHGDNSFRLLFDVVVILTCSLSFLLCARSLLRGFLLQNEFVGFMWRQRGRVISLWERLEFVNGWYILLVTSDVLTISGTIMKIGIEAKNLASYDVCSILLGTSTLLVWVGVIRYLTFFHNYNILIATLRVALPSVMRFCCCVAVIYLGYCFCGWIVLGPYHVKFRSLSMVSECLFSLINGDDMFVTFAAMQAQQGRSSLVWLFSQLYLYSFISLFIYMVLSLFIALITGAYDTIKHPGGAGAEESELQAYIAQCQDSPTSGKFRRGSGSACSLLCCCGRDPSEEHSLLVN
#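 TRPML1-DL cells, Tet-induced overnight (~16 h, 37 °C) at 1,500 cells/well, were loaded with Ca8 no-wash dye plus quencher for 45-90 min at room temperature. Compounds were pinned during FDSS kinetic reading; agonist 54-4 at EC80 (4 uM final) then added.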
# Six1-Eya2 blk: Six1/Eya2 interaction inhibition | Q15475+O00167 | AlphaScreen GST-Six1/His-Eya2 binding, biochemical; active compounds read low; control for the full effect not named in the record | AID 651725 | activity change, % (no concentration beside the values) | actives 0.56% (n = 360,000); in the data active = activity change below about -65%; inconclusive = about -30% to -65%; inactive = above about -30%; note: % is set by controls: 0 for no effect and ±100 for the full control effect
#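 Six1/Eya2 binding was read as AlphaScreen signal after compounds were pinned into GST-Six1 plus His-tagged Eya2 (5X stock 250/500 nM) in pH 8.0 Tris/NaCl/TCEP buffer, beads added, then incubated 1 h, 37 C, dark.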
# CtBP-E1A blk: inhibitors of CtBP/E1A interaction; AlphaScreen GST-E1A/His-CtBP binding, 1536-well; active compounds read low; control for the full effect not named in the record; activity change, % (concentration not given with the values); actives 0.49% (n = 340,000); AID 651724; in the data active means activity change below about -65%; inconclusive means about -30% to -65%; inactive means above about -30%; note: % is set by controls: 0 for no effect and ±100 for the full control effect
#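 Homogeneous bead-based format: GST-tagged E1A captured on glutathione donor beads, His-tagged CtBP on nickel acceptor beads; compounds precede bead addition by 2 h at 37 °C.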
# TRPML1 agonist: activates the human TRPML1 channel; TRPML1-expressing cells, Ca2+ dye fluorescence, FDSS; host cell line not named in the record; reference of the full effect not given here; actives 0.12% (n = 410,000); activation, % (no concentration beside the values); Q9GZU1; in the data active = activation above about 50%; inconclusive = about 30% to 50%; inactive = below about 30%; note: 0% is about no effect; the text of the record puts the active cut at 80%
#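 TRPML1-DL cells, Tet-induced overnight (~16 h, 37 degrees C), loaded 45-90 min at room temperature with Ca8 no-wash calcium dye plus quencher. FDSS fluorescence: 10 s baseline, compound pin-transfer, 110 s agonist read, then EC80 54-4 (4uM final) and 110 s antagonist read.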
# PINK1 expr mod: changes PINK1 expression; PINK1 immunofluorescence, high-content cytometry, 24 h; Potency, µM (doses to about 76.6 µM), without a hit: at the top dose activation (PINK1 increase), usual class: activators; AID 624263; actives 0.2% (n = 410,000); active = well fitted activation curve with a large enough effect; inconclusive = small, poorly fitted or top-dose-only effect; inactive = flat fitted curve, though single readings scatter; cell line not stated here;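 note: potency is the fitted concentration of half-maximal effect; % of control where 0% means no effect; nearly all actives have a fitted effect of over 65% in size; a mitochondrial uncoupler was the plate control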
#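 Compound titrations (5 concentrations, 24 h) on a stable cell line; DMSO and CCCP controls. Endpoint: fixed-cell PINK1 immunofluorescence with mitochondrial, cell and nuclear markers, scanned by microplate cytometer.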
# D2 ag: human D2 receptor agonism in beta-arrestin assay; P14416; DiscoveRx PathHunter D2 beta-arrestin, luminescence, 90 min; 100% = 57 uM dopamine signal; activation, % (concentration not given with the values); actives 0.084% (n = 360,000); AID 624465; in the data active = activation above about 40%; inconclusive = about 15% to 40%; inactive = below about 15%; note: compound concentration not given in the record; the text of the record calls up to 30% inactive
# Target sequence (P14416 whole entry, looked up): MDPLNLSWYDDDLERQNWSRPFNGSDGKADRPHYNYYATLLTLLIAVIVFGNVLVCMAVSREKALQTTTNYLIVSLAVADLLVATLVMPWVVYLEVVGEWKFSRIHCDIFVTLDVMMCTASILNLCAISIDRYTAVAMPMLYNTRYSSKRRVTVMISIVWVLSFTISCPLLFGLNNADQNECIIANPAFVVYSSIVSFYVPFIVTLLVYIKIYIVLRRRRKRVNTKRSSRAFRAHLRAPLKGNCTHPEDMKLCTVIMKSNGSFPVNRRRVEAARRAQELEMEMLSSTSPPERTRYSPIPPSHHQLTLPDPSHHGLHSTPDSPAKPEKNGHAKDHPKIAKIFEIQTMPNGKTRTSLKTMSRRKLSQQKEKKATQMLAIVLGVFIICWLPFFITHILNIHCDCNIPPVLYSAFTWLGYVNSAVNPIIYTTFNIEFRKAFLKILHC
#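 DiscoveRx PathHunter D2 beta-arrestin cells (2,100/well) attached overnight, then compound-stimulated 90 min at 37 C in HBSS/10 mM HEPES/0.1% Tween-20 buffer; beta-galactosidase complementation read by luminescence after 1 h at ambient temperature. Dopamine 57 uM final (EC100) as control.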
# Numbers without * were called inactive; ? = inconclusive; nt = no result given; [ ] = remark or other dose.
SMILES,TRPML1 blocker,Six1-Eya2 blk,CtBP-E1A blk,TRPML1 agonist,PINK1 expr mod,D2 ag
Cc1ccc(C2(c3ccccc3)NC(=O)N(CC(=O)N3CC(=O)Nc4ccccc43)C2=O)cc1C (configuration not stated),-2,-12,-9,-0.1,-0.2%,-6.7
CCC(Cc1ccccc1)NC(=O)CN1C(=O)CSc2ncccc21 (configuration not stated),5,-9,0,-0.5,-0.1%,-6.8
O=C(O)CNC(=O)/C=C/c1c(Cl)cccc1Cl,20,2,nt,0.4,-0.1%,-0.9
COc1cc(/C=C/C(=O)O)cc(S(=O)(=O)NCCCO)c1OC,4,2,-1,-0.5,-0.2%,-2.7
CN1c2ccsc2/C(=N/NC(=O)c2c(F)cccc2F)CS1(=O)=O,6,2,2,0.2,0.5%,-2.2
O=C(O)CC1(CC(=O)Nc2ccc(Cl)cc2C(=O)c2ccccc2)CCCC1,29,3,nt,0.6,0.5%,6.2
COC(=O)c1cc(S(=O)(=O)N2CCN(c3ccccc3F)CC2)c[nH]1,-5,0,1,0.7,0.1%,5.1
COc1cc(NC(=O)CCc2c(C)nn(-c3ccc(N4CCCCC4)nn3)c2C)cc(OC)c1OC,-15,nt,nt,-0.1,3.0%,nt
CCCC(=O)Nc1cc(C(=O)NCc2ccc(OC)cc2)ccc1S(=O)(=O)c1ccc(Cl)cc1,-13,nt,nt,1.6,2.5%,nt
O=C(NCc1ccccn1)c1ccc(OC2CCN(Cc3ccccc3)CC2)cc1,9,-1,-5,0.6,3.6%,-2.8
CCOc1ccc(CCNC(=O)c2sc3nc4n(c(=O)c3c2C)CCC4)cc1,2,-4,-7,0.5,0.6%,-5.4
CCOc1ccc(CCNC(=O)Cn2nc(CC)n3c(cc4sccc43)c2=O)cc1,-4,nt,nt,-0.5,-0.9%,nt
COc1ccc(CN2C(=O)/C(=C/c3ccncc3)SC2=S)cc1,-12,-14,-7,0.0,-2.7%,4.8
COc1ccccc1NC(=O)CSc1nnc(NC(=O)C2CCC2)s1,2,6,0,-1.4,7.7%,-7.5
CCOC(=O)c1ccc(N2C(=O)c3n[nH]c(-c4ccco4)c3C2c2ccc(OC)cc2OC)cc1 (configuration not stated),2,nt,nt,3.5,?,nt
Cc1ccc(S(=O)(=O)N2CCN(CC(=O)N/N=C/c3ccco3)CC2)cc1,-9,7,2,1.4,-0.4%,0.8
COc1cccc(OCCn2ccnc2)c1,0,0,6,0.6,2.6%[38.3 µM],-1.8
CCOc1ccccc1NC(=O)c1cc2cc(C)ccc2n1C,21,nt,nt,1.1,4.4%,nt
CCCc1cc(-c2n[nH]c(=S)n2CC)cs1,9,-6,15,0.6,-1.4%,-4.7
CN(C)S(=O)(=O)c1ccc(Cl)c(NC(=O)COC(=O)c2cc(-c3ccccc3)nc3ccccc23)c1,38,-3,7,-0.5,-0.3%,-3.4
COc1ccc2c(C)cc(N3CCN(Cc4ccccc4)CC3)nc2c1,-10,10,-1,1.8,5.1%,-4.3
CCN1CCCC1CNC(=O)c1ccc2c(c1)NC(=O)/C(=C\c1ccccc1Cl)S2 (configuration not stated),-6,-3,-1,0.0,2.7%,-2.9
Cc1cc2cc3c(cc2nc1SCC(=O)N1CCCC1)OCCO3,3,-5,0,-0.2,1.3%,-2.8
O=C1CCCc2nc(N3CCN(Cc4ccccc4)CC3)ncc21,1,-3,3,-0.9,23%[38.3 µM],-4.0
O=C(O)CCC(=O)N1CCc2cc(S(=O)(=O)NCc3ccc(Cl)cc3)ccc21,-8,9,-27,-0.4,0.9%,5.8
COc1ccc(-c2csc(NC(=O)CSc3nnnn3C)n2)cc1OC,-7,-7,-1,-1.0,5.1%,-4.4
CCOC(=O)c1c(C)oc2nc(C)nc(NCCCN3CCN(c4ccccc4)CC3)c12,4,nt,nt,1.2,2.9%,nt
O=C(c1cccc(S(=O)(=O)Nc2ccc(F)cc2)c1)N1CCC1,-1,-3,-3,1.8,0.9%,1.6
CCc1nc(SCc2nnc(-c3ccc(C)cc3)o2)c2c(C)c(C)sc2n1,-2,-2,-1,-0.4,-1.6%,-1.1
CC(C)(C)c1ccc(/C=N/NC(=S)NCc2ccccc2)cc1,-13,-5,-15,1.5,12%,-2.6
Cc1cc(C)c2cc(CN(Cc3ccco3)C(=S)NCC3CCCO3)c(=O)[nH]c2c1 (configuration not stated),-14,-13,-4,2.1,-2.3%,2.0
COc1cc(/C=C2\CCCc3c2nc2ccccc2c3C(=O)O)cc(Cl)c1O,16,?,?,0.7,-0.5%,-6.8
Cc1ccc(CN(Cc2cccnc2)C(=S)Nc2cc(Cl)ccc2C)cc1,59,1,-1,2.3,3.3%,-2.3
Cc1cc(NC(=O)Nc2cccc(C(F)(F)F)c2)no1,-4,-4,-3,3.1,-2.4%,-5.5
Nc1ccc(Sc2ccccc2)nc1,5,10,2,0.6,0.0%,-3.0
O=[N+]([O-])c1cccc(Cl)c1N1CCOCC1,-10,4,-9,-0.5,5.6%,1.5
COc1cccc(C(NC(C)=O)c2nc(-c3cccc4cccnc34)cs2)c1 (configuration not stated),nt,0,0,-0.2,1.5%,?
COC(=O)c1ccccc1COc1cccn2c(N(C)Cc3cccs3)c(C)nc12,nt,-17,-5,-1.0,?,-4.4
COc1cc(Br)cc(/C=C/c2ccc3cccc(O)c3n2)c1OC,48,-1,-2,0.3,19%,-0.9
CCCN(C(=O)c1cc2c(s1)-c1ccccc1SC2)c1ccccc1F,-2,nt,nt,0.6,2.0%,nt

# Pulled one by one from the list above (3):
SMILES,TRPML1 blocker,Six1-Eya2 blk,CtBP-E1A blk,TRPML1 agonist,PINK1 expr mod,D2 ag
CCCN(C(=O)c1cc2c(s1)-c1ccccc1SC2)c1ccccc1F,-2,nt,nt,0.6,2.0%,nt
CCOC(=O)c1c(C)oc2nc(C)nc(NCCCN3CCN(c4ccccc4)CC3)c12,4,nt,nt,1.2,2.9%,nt
Cc1cc(C)c2cc(CN(Cc3ccco3)C(=S)NCC3CCCO3)c(=O)[nH]c2c1 (configuration not stated),-14,-13,-4,2.1,-2.3%,2.0

# New compounds follow:
SMILES,TRPML1 blocker,Six1-Eya2 blk,CtBP-E1A blk,TRPML1 agonist,PINK1 expr mod,D2 ag
COC(=O)c1cc2ccccc2c(-c2c(OC)c(C(=O)OC)cc3ccccc23)c1OC,4,3,-4,3.2,-2.8%,-4.1
CN(C)CCCNc1nc(N)c([N+](=O)[O-])c(NCc2ccccc2)n1,-7,6,-4,-0.1,-1.2%,-1.8
O=C(COC(=O)CNS(=O)(=O)c1ccc(F)c(F)c1F)NCCc1ccccc1,-7,8,-2,0.0,1.2%,-4.1
Cc1ccc(-c2csc(NC(=O)CSc3nc4ccccc4[nH]3)n2)cc1,-16,-4,2,1.5,3.1%,7.9
Cc1ccc(-n2nc3c(c2NC(=O)C2CCCC2)CS(=O)(=O)C3)cc1,10,4,-4,-1.2,-0.7%,-3.5
COc1cc(-c2nnc(COC(=O)c3ccc([N+](=O)[O-])o3)o2)cc(OC)c1OC,-11,-18,-3,-0.1,1.4%,6.0
COc1ccccc1N(CC(=O)N1CCN(Cc2ccccc2)CC1)S(=O)(=O)c1ccccc1,1,-4,0,-1.0,2.8%,-1.4
COC(=O)CCC(=O)c1oc2ccc(Cl)cc2c1NC(=O)CCCN1C(=O)c2ccccc2C1=O,2,-1,5,0.4,0.7%,-4.0
CCOc1ccc(NC(=O)c2c(NCc3cccs3)sc3c2CCC(C)C3)cc1 (configuration not stated),-1,nt,nt,0.5,1.9%,nt
Clc1ccc(-c2nc3ccc(Cl)cn3c2Cc2ccsc2)cc1,-15,-8,0,-0.3,2.4%,4.7
Cc1ccc(-c2noc(-c3ccc(NCc4ccco4)c([N+](=O)[O-])c3)n2)cc1,?,nt,nt,-0.1,5.6%,nt
CCOC(=O)C(NC(=O)c1ccc(OC)cc1)(N1CCCC1=O)C(F)(F)F (configuration not stated),2,-1,1,1.7,1.4%,-1.8
Cc1cc2c(=O)[nH]c(N)nc2[nH]1,8,-1,0,0.9,-0.1%,-5.3
Cc1csc2ncc(C(=O)NCCc3ccccc3)c(=O)n12,-2,-20,-2,-0.5,4.6%,2.8
O=C1CC(c2ccc(F)cc2)c2c(n3c(nc4ccccc43)[nH]c2=O)N1 (configuration not stated),16,nt,nt,-0.5,0.7%,nt
O=c1[nH]c(=O)n(Cc2ccco2)c2c1C(C(F)(F)F)(C(F)(F)F)N=C(CCc1ccccc1)N2,11,-2,-1,2.8,3.3%[38.3 µM],6.1
CCNC(=O)C1(C)CCCN(C(=O)COCc2ccccc2)C1 (configuration not stated),nt,1,-3,-0.9,0.1%,-6.1
CCN(CC)CCn1c(SCC(=O)NCc2ccco2)nc2c(sc3ccccc32)c1=O,-4,-1,0,-0.9,-0.4%,-0.5
O=C1CN(C(=O)c2ccc(S(=O)(=O)N3CCCC3)cc2)C(c2ccc(F)cc2)c2cc(F)ccc2N1 (configuration not stated),3,nt,nt,4.1,-2.8%,nt
CCSc1nnc(Cc2cc(=O)[nH]c(=O)[nH]2)n1-c1cccc(C)c1,-9,9,3,-0.3,2.7%,-2.7
CC(CNC(=O)CC[C@H]1O[C@@H](n2cnc3c(NC(=O)c4ccccc4)ncnc32)[C@H](O)[C@@H]1O)c1ccccc1 (some centres not stated),18,13,-8,0.7,3.6%,14
COc1ccc(N2CC(C(=O)NCCCN3CCOCC3)CC2=O)cc1 (configuration not stated),-4,4,5,-0.1,23%[38.3 µM],-0.6
O=C(Cc1c[nH]c2ccccc12)N1CCN(c2ccccc2)CC1,-20,-6,-5,1.3,-1.2%,2.0
Cc1ccccc1-c1coc2cc(O)ccc2c1=O,30,4,10,0.3,-1.7%,-0.5
CC(C)CC[n+]1ccn(-c2nc3ccccc3nc2[N-]S(=O)(=O)c2ccc(Cl)cc2)c1,-8,13,1,-0.1,3.0%,-5.1
COc1ccccc1N1C(=O)C=C(Sc2nc(C)cc(C)n2)C1=O,-8,1,-3,1.1,0.3%,-3.6
Cc1nc2c(-c3ccccc3)c(C)nn2c(C)c1CCC(=O)Nc1ccccc1F,6,nt,nt,0.3,0.1%,nt
C(=C\c1ccccc1)/CN1CCN(C(c2cccs2)c2nnnn2Cc2ccccc2)CC1 (configuration not stated),-10,-25,-24,0.3,0.7%,-2.8
O=C(C[n+]1ccc(C(=O)N/N=C/c2ccc(Br)cc2)cc1)c1ccccc1,13,11,0,-0.3,5.5%,0.1
CSc1nc(N)c2c(n1)N(C)C=NS2(=O)=O,-2,8,2,-0.3,1.0%,-1.1
Cc1ccc(CCNC(=O)NC(C)(C)C)cc1,16,1,1,0.0,-0.8%,-1.8
CC(C)(C)c1cc(C(=O)NNc2ccc(OC(F)(F)F)cc2)n(Cc2ccccc2)n1,-15,6,1,2.0,5.7%,-9.5
O=C(Cc1ccc(S(=O)(=O)N2CCOCC2)s1)Nc1ccc(N2CCOCC2)cc1,-9,-4,-3,-0.2,-1.3%,5.5
COc1ccc(Br)cc1/C=C/C(=O)NCC(=O)O,-5,-11,2,0.1,2.9%,-3.7

# Random draw from the library; 1% or so of the library scored in one or more.
